GIRK2 activ – opens human GIRK2 potassium channels | P48051 | HEK293-GIRK2 thallium flux, Thallos fluorescence | calls only for hits at 25 µM | actives 0.05% (n = 63,000);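 active = among the strongest 0.2% of first-round signals and kept after retests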;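 note: first round at about 10 µM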
Target sequence (P48051 whole entry, looked up): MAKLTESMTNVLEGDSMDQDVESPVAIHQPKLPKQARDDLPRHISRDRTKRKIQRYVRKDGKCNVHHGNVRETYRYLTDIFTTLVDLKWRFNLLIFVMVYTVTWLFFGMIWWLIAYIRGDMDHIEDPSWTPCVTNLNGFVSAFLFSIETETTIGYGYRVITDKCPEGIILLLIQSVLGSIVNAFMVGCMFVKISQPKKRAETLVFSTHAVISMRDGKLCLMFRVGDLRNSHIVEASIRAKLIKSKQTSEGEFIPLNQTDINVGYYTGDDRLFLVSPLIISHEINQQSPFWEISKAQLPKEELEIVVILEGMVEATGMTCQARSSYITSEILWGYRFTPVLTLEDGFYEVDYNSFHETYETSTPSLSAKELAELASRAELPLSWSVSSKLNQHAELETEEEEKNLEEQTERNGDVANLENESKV
Calls only; i = inactive. This is a subset. The share of hits here may be higher or lower than overall.

No.	mol	GIRK2 activ
1	Cc1cc(C)c(NC(=O)CSc2nccn(-c3cccc(F)c3)c2=O)c(C)c1	i
2	O=C(Nc1cccc(N2CCCC2=O)c1)C(=O)Nc1nc2ccccc2s1	i
3	COc1ccc2c(c1)c(CC(=O)NCCCCNS(=O)(=O)c1ccc(I)cc1)c(C)n2C(=O)c1ccc(Cl)cc1	i
4	C=C(C)COc1ccc(-c2n[nH]c(C)c2Oc2cccc(OC)c2)c(O)c1	i
5	CCOC(=O)Cn1c(=O)c2c(nc3n(-c4ccc(C)cc4C)c(C)cn23)n(C)c1=O	i
6	CCOC(=O)c1ccccc1NC(=O)CSc1ccnc2c1c(=O)n(C)c(=O)n2C	i
7	COc1ccc(C)cc1S(=O)(=O)NCC1CCN(C(C)C)CC1	i
8	O=c1[nH]c2c(-c3ccccn3)nsc2c(=O)n1CC1CC1	i
9	CC(=O)Nc1ccc(SCCCC(=O)Nc2ccc(OC(F)(F)F)cc2)nn1	i
10	Cc1nnsc1C(=O)N1CC(c2nc(-c3ccccc3)no2)C1	i
11	Cc1nn(C)cc1C(=O)Nc1c(C)n(C)n(-c2ccccc2)c1=O	i
12	CC(=O)c1cccc(NC(=O)COc2cc(C)nc(N3CCC(C)CC3)n2)c1	i
13	CCN1CCc2c(sc(NC(=O)CSc3ccc(F)cc3)c2-c2nc3ccccc3s2)C1	i
14	O=C(NCCOc1ccccc1)Nc1ccc(OC(F)(F)F)cc1	i
15	COc1ccc(NC(=O)Cn2c(C)cc(C)c(-c3nc(-c4cccc(Cl)c4)no3)c2=O)cc1	i
16	CC1CCC(NC(=O)c2ccc(Oc3nccnc3N3CCCCC3)cc2)CC1 (centres undefined)	i
17	CN(C)C(CNS(=O)(=O)c1ccc(OC(F)(F)F)cc1)c1cn(C)c2ccccc12 (centres undefined)	i
18	Cc1ccc(S(=O)(=O)N2CCCC(c3nc(-c4ccc(Br)cc4)no3)C2)cc1 (centres undefined)	i
19	Cc1nccn1-c1ccc(C(=O)NCC(F)(F)F)nn1	i
20	Cn1cc(C2=C(c3cn(CCO)c4ccccc34)C(=O)NC2=O)c2ccccc21	i
21	O=C(c1ccc(Cn2c(=O)[nH]c3ccccc3c2=O)cc1)N1CC=C(c2ccccc2)CC1	i
22	O=C(CSc1cc(C(F)(F)F)c2cc3c(cc2n1)OCO3)NCCN1CCOCC1	i
23	CCCOc1ccc(CNC(=O)C2CCCN(c3ncnc4c3oc3ccccc34)C2)cc1 (centres undefined)	i
24	COc1ccc(Cl)cc1NC(=O)C(=O)NCC(O)c1sccc1C (centres undefined)	i
25	CCOCCn1c(=O)c2c(nc3n2CCCN3c2ccc(Br)cc2)n(C)c1=O	i
26	COc1ccccc1NC(=O)C1C(C)Nc2ncnn2C1c1ccccc1F (centres undefined)	i
27	NC(=O)c1ccccc1OCC#CCNC(=O)c1cc2ccccc2o1	i
28	C[C@@H](CS(C)(=O)=O)Nc1ncc2cc(Oc3ccc(F)cc3F)c(=O)n(C)c2n1	i
29	COc1cccc(OCC(=O)N2CCN(c3ncnc4c3nnn4-c3ccccc3)CC2)c1	i
30	COc1ccc(NC(=O)COc2nc(C)nc3ccccc23)cc1	i
31	COc1ccc(OC)c(-n2nnc(-c3nc(-c4ccccc4F)no3)c2N)c1	i
32	COc1ccc(-c2csc(Cc3nc(-c4cccc(Cl)c4)no3)n2)cc1OC	i
33	O=C(CSCc1ccccc1)NCC1CCN(C(=O)c2cccnc2)CC1	i
34	COc1ccc2c(c1)O/C(=C\c1cc(Cl)cc3c1OCOC3)C2=O	i
35	COCCNc1c(C=O)c(=O)n(C)c(=O)n1C	i
36	CC(=O)NCCCCCCNC(C)=O	i
37	COc1ccc2c(=O)c3c(oc2c1)C(=O)N(CCN1CCOCC1)C3c1cccs1 (centres undefined)	i
38	COc1ccc(C2CC3C4NN=C(SCC(=O)Nc5cccc(C)c5C)N4C=CN3N2)cc1 (centres undefined)	i
39	Nc1nc(F)nc2c1ncn2[C@@H]1O[C@H](CO)[C@@H](O)[C@@H]1O	i
40	CCN(CC)CCCN1C(=O)c2oc3ccccc3c(=O)c2C1c1ccc(C)cc1 (centres undefined)	i
41	CC(C)c1noc(-c2ccnc(-n3cnc(C(=O)NC(C)c4ccc(F)cc4)c3)c2)n1 (centres undefined)	i
42	CC(C)Oc1ccc(C(=O)Nc2c3c(nn2CC(=O)NCC2CCCO2)CSC3)cc1 (centres undefined)	i
43	CSCCC(C)(O)CNC(=O)C(=O)NCc1ccccc1Cl (centres undefined)	i
44	O=C(CCc1ccc(O)cc1)c1c(O)c([C@@H]2O[C@H](CO)[C@@H](O)[C@H](O)[C@H]2O)c(O)c([C@@H]2O[C@H](CO)[C@@H](O)[C@H](O)[C@H]2O)c1O	i
45	COc1cccc(OCC(=O)NCC#CCOc2ccccc2OC)c1	i
46	CCOC(=O)CCn1c(=O)c2c(nc3n(-c4ccc(OC)cc4)c(C)cn23)n(C)c1=O	i
47	O=[N+]([O-])c1cc(Cl)ccc1NCc1ccccc1	i
48	CC(=O)C(C)n1c(=O)c2c(nc3n2CCCCN3c2ccc(Oc3ccccc3)cc2)n(C)c1=O (centres undefined)	i
49	O=C(Nc1ccc(-n2nnn(CC(=O)N3CCOCC3)c2=O)cc1)c1ccsc1	i
50	CCCCOc1ccc(S(=O)(=O)N2CCN(c3ccc(C)cc3C)CC2)cc1	i
51	C[C@@H]1CC[C@]2(C(=O)O)CC[C@]3(C(=O)O)C(=CCC4[C@@]5(C)CC[C@H](O[C@@H]6O[C@@H](C)[C@H](O[C@@H]7O[C@H](CO)[C@@H](O)[C@H](O)[C@H]7O)[C@@H](O)[C@H]6O)C(C)(C)C5CC[C@]43C)C2[C@H]1C (some centres undefined)	i
52	CC(=O)Nc1ccc(NC(=O)Cn2cccc(-c3nc(-c4ccc(Cl)cc4)no3)c2=O)cc1	i
53	CC(=O)N1CCc2c(sc(NC(=O)c3cc(C)ccc3C)c2-c2nc3ccccc3s2)C1	i
54	COc1ccc(N2CCN(c3nnc(SC)s3)CC2)cc1	i
55	CCOc1ccc(N2CC(C)Cn3c2nc2c3c(=O)n(CC(C)=O)c(=O)n2C)cc1 (centres undefined)	i
56	CN(C)CCNC(=O)NCC12CC3CC(C1)CC(c1ccccc1)(C3)C2	i

Next compounds
No.	mol	GIRK2 activ
57	COCCn1nnn(-c2ccc(NC(=O)c3cccs3)cc2)c1=O	i
58	O=C(CCn1cnc2c([nH]c3ccccc32)c1=O)Nc1ccc(Cl)cc1	i
59	COc1ccc(NC(=O)c2ccc(OC(C)C)cc2)cc1N1CCCC1=O	i
60	CC1CCN(c2cc(-n3cnc(C(=O)N4CCSCC4)c3)ncn2)CC1	i
61	Cc1cc(C)cc(OCCn2c(C3CC(=O)N(C(C)(C)C)C3)nc3ccccc32)c1 (centres undefined)	i
62	O=C(NC(=O)c1ccccc1)Nc1cccc(S(=O)(=O)N2CCCCC2)c1	i
63	CCc1c(C)nc2n(c1=O)CC(C(=O)NCCc1ccc(S(N)(=O)=O)cc1)CS2 (centres undefined)	i
64	CS(=O)(=O)Oc1ccc2c(c1)O/C(=C\c1cc(Br)cc3c1OCOC3)C2=O	i
65	Cc1nc(-c2cccs2)sc1CNC(=O)Cn1nc(-c2ccco2)ccc1=O	i
66	CCOC(=O)c1cn[nH]c1S(=O)(=O)NCc1ccc(F)cc1F	i
67	COc1ccccc1N1CCN(c2nnc(SCC(N)=O)s2)CC1	i
68	COc1ccc(C(=O)NCCc2ccc(S(N)(=O)=O)cc2)nn1	i
69	CC(Oc1ccccc1)C(=O)N1CCN(CC(O)c2ccco2)CC1 (centres undefined)	i
70	O=C(c1ccc[nH]c1=O)N1CCN(c2ccc(-c3noc(C4CC4)n3)cn2)CC1	i
71	O=C(NC1CCCCC1)c1ccc2c(=O)nc3c(-c4ccc(Cl)cc4)n[nH]n3c2c1	i
72	O=C(c1ccccc1Cl)N1CCCC(c2nnc(-c3ccc4c(c3)OCO4)o2)C1 (centres undefined)	i
73	COc1ccc(S(=O)(=O)N2CCN(Cc3nc4ccccc4[nH]3)CC2)cc1OC	i
74	O=C(CN1CCC(c2nnc(C(F)(F)F)o2)CC1)N1CCOCC1	i
75	O=C(NCc1cccs1)c1cc(=O)c(OCc2ccccc2)co1	i
76	O=C(NCc1ccc(F)cc1)NCC(O)(c1ccccc1)C1CC1 (centres undefined)	i
77	O=C(CCc1csc(NC(=O)Nc2cccc(Cl)c2)n1)NCc1ccco1	i
78	O=C(NCCC(O)c1ccoc1)c1ccoc1 (centres undefined)	i
79	Cc1nccn1-c1cc(N2CCN(C(=O)COc3ccc(-n4cccn4)nn3)CC2)ncn1	i
80	O=C(NCCC(O)c1ccoc1)C1(c2ccccc2)CCOCC1 (centres undefined)	i
81	COc1ccc(-c2ccc(S(=O)(=O)NCCC(=O)O)cc2)cc1	i
82	COCCCNC(=O)c1[nH]c2ccc(C)cc2c1NC(=O)c1ccc(Cl)cc1	i
83	Cc1noc(C)c1S(=O)(=O)N1CCc2nc(NC(=O)c3ccco3)sc2C1	i
84	COc1ccc(C)cc1S(=O)(=O)Nc1ccc(Nc2ccc(C)nn2)cc1	i
85	COc1ccc(Cn2c(=O)c3oc4ccccc4c3n(CC(=O)Nc3ccc4c(c3)OCO4)c2=O)cc1	i
86	COc1ccccc1CCNC(=O)c1cnc2c(c(C)nn2-c2ccc(C)cc2)c1Cl	i
87	Cn1cc(OCc2ccccc2)c(=O)cc1C(=O)Nc1ccc2c(c1)OCCO2	i
88	O=C(NCc1ccc(F)cc1)N1CCC(c2ccccc2)C1 (centres undefined)	i
89	COc1cc(NC(=O)CSc2ccc(-c3nc(C)no3)cn2)cc(OC)c1	i
90	Cc1c(C)n2c3c(=O)n(CCN4CCCCC4)c(=O)n(C)c3nc2n1CCc1ccccc1	i
91	O=C1COc2ccc(Cl)cc2CN1CC1CC1	i
92	O=C(NCc1ccccc1)C(=O)NCC(O)(c1ccccc1)C1CC1 (centres undefined)	i
93	C[C@@]12CC[C@H]3[C@@H]1C=C1C(=O)c4ccccc4C(=O)[C@]1(O2)[C@@]3(C)C=O	i
94	Cc1cc(NC(=O)c2ccc(C#N)cc2)ccc1N1CCCC1=O	i
95	CCOc1cccc(-c2noc(CCn3nc(-c4ccc(F)cc4)ccc3=O)n2)c1	i
96	O=C1CC(c2nc3ccccc3n2Cc2cccc(Cl)c2)CN1c1ccccc1F (centres undefined)	i

Molecules listed so far with two or more sulfur atoms, in the order listed:
No.	mol	GIRK2 activ
13	CCN1CCc2c(sc(NC(=O)CSc3ccc(F)cc3)c2-c2nc3ccccc3s2)C1	i
53	CC(=O)N1CCc2c(sc(NC(=O)c3cc(C)ccc3C)c2-c2nc3ccccc3s2)C1	i
54	COc1ccc(N2CCN(c3nnc(SC)s3)CC2)cc1	i
63	CCc1c(C)nc2n(c1=O)CC(C(=O)NCCc1ccc(S(N)(=O)=O)cc1)CS2 (centres undefined)	i
65	Cc1nc(-c2cccs2)sc1CNC(=O)Cn1nc(-c2ccco2)ccc1=O	i
67	COc1ccccc1N1CCN(c2nnc(SCC(N)=O)s2)CC1	i
83	Cc1noc(C)c1S(=O)(=O)N1CCc2nc(NC(=O)c3ccco3)sc2C1	i

Carrying on:
No.	mol	GIRK2 activ
97	O=C(NCc1ccc(F)cc1Cl)C1CCN(c2ncnc3c2oc2ccccc23)CC1	i
98	O=C(CC(=O)c1ccccc1)Nc1ccc2c(c1)OCCO2	i
99	Cn1nnnc1SCC(=O)NCC1CCC(c2nc3ccccc3n2C)CC1 (centres undefined)	i
100	Cc1cc2ccccc2n1CCCNC(=O)c1cc(-c2ccco2)on1	i
101	COc1ccc(S(=O)(=O)NCC(c2ccsc2)N(C)C)cc1F (centres undefined)	i
102	COc1cc(/C=C2\Oc3c(ccc(OC(=O)N4CCOCC4)c3C)C2=O)cc(OC)c1OC	i
103	COc1ccc(-c2n[nH]n3c2nc(=O)c2ccc(C(=O)NCCc4ccccc4)cc23)cc1	i
104	COc1ccccc1OCC#CCNC(=O)C1CC(=O)N(C)C1 (centres undefined)	i
105	O=C(Cn1cc(-c2nc(-c3ccsc3)no2)ccc1=O)NCc1ccc(F)cc1F	i
106	C=C1C2CCC3[C@]4(C)CCC[C@@](C)(C(=O)O)C4CC[C@]3(C2)[C@H]1OC(C)=O (some centres undefined)	i
107	O=C(NC1CC(O)C(CO)C1)c1ccc2[nH]ccc2c1 (centres undefined)	i
108	Cn1c(=O)c2cc(C(=O)NCCCn3ccnc3)n(Cc3ccccc3)c2n(C)c1=O	i
109	COc1ccccc1CNC(=O)C(=O)NCCC1CCCCN1S(=O)(=O)c1ccc(F)cc1 (centres undefined)	i
110	CC(=O)c1ccc(Nc2nc3ccccc3nc2NS(=O)(=O)c2cccs2)cc1	i
111	CN(C)S(=O)(=O)N1CCC(COCc2ccc(C#N)cc2)CC1	i
112	O=C(CN1CCC(c2nnc(C(F)(F)F)o2)CC1)Nc1ccc2c(c1)OCO2	i
113	CCOCCn1c(=O)c2c(nc3n2CCCN3c2ccccc2OC)n(C)c1=O	i
114	O=C(c1cc(=O)c(OCc2ccccc2)co1)N1CCN(c2ccccc2F)CC1	i
115	O=C(c1ccsc1)N1CCN(c2ccc(-c3noc(C(F)(F)F)n3)cn2)CC1	i
116	Cn1c(=O)n(CC(N)=O)c(=O)c2c1nc1n2CCCN1c1ccc(Br)cc1	i
117	C=CCn1c(=O)[nH]c2cc(C(=O)NC3CCCC3)ccc2c1=O	i
118	COc1ccc(OCC(=O)Nc2cc(C)nn2-c2nc3ccc(F)cc3s2)cc1	i
119	CC1C(=O)OCC2=CCN3CCC(OC(=O)C(C)(O)C1(C)O)C23 (centres undefined)	i
120	CCOCCn1c(N2CCCC2)nc2c1c(=O)[nH]c(=O)n2C	i
121	COc1cc2[nH]c3c(=O)n(CC(=O)N4CCN(c5ccccc5OC)CC4)cnc3c2cc1OC	i
122	Cc1nc(NCCNC(=O)Nc2ccc3c(c2)OCCO3)cc(-n2cccc2)n1	i

3 entries from above, with the structure last.
no.	GIRK2 activ	compound
115	i	O=C(c1ccsc1)N1CCN(c2ccc(-c3noc(C(F)(F)F)n3)cn2)CC1
116	i	Cn1c(=O)n(CC(N)=O)c(=O)c2c1nc1n2CCCN1c1ccc(Br)cc1
117	i	C=CCn1c(=O)[nH]c2cc(C(=O)NC3CCCC3)ccc2c1=O

High-throughput results as filed in PubChem BioAssay.
